Mtb growth = Mycobacterium tuberculosis H37Rv growth inhibition, putative kinase inhibitor library, confirmatory dose response (AID 2842); M. tuberculosis H37Rv growth inhibition; higher % means a stronger effect; some inactives read as strong as hits; actives 5.2% (n = 24,000); one-dose inhibition, % at 10 µg/mL; IC90 in µg/mL for titrated hits;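 active = confirmed in a dose series; about a fifth of its hits are not listed in these tables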;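 also: bacteria incubated one week before Alamar blue readout; 0% = bacteria only wells and 100% = bacteria with high antibiotic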
* hit, by the source's call. The list is partial. The share of hits here may be higher or lower than overall.

SMILES	Mtb growth
CCOC(=O)c1nn(-c2ccc(C)cc2)c(=O)c2c(NC(=O)COC)scc12	-13%
Cc1ccccc1CN1CCc2c(OCC(=O)Nc3ccc4c(c3)OCO4)cccc2C1=O	7%
Nc1ncnc(NC2CCCCC2)c1[N+](=O)[O-]	9%
CC1CN(C2CCCCC2)c2nc3c(c(=O)[nH]c(=O)n3C)n2C1 (stereo not drawn)	10%
COC(=O)c1c(NC(=O)c2ccc(C)c(C)c2)sc2c1CC(C)(C)NC2(C)C	5%
O=C(Nc1nc(-c2ccc3c(c2)OCCO3)cs1)c1ccc(F)cc1	6%
O=C(COc1ccccc1)Nc1c(C(=O)Nc2ccc3c(c2)OCO3)oc2ccccc12	-8%
Cc1nn(-c2ccccc2)c2ncc(C(=O)Nc3ccccc3-c3ccccc3)c(Cl)c12	5%
COC(=O)c1ccccc1NC(=O)c1cc[n+]([O-])cc1	2%
CCOC(=O)COc1cccc2c(=O)n(CC(=O)Nc3ccc(F)cc3F)ccc12	-8%
CCOc1ccc2c(c1)c(=O)c(S(=O)(=O)c1ccc(C)cc1)cn2Cc1ccc(F)cc1	-6%
CCC1CCCCN1S(=O)(=O)c1ccc(C(=O)Nc2ccc3c(c2)C(=O)NC3=O)cc1 (stereo not drawn)	-2%
Cc1ccnc(SCc2cc(=O)c(OC(=O)c3c(F)cccc3Cl)co2)n1	-4%
COc1ccc(NC(=O)Cn2nnc3ccccc32)cc1	6%
O=C1CCc2cc(S(=O)(=O)Nc3ccccc3)cc3c2N1CCC3	-7%
CCCCC(=O)Nc1c(C(=O)Nc2cccc(OC)c2)oc2ccccc12	3%
Cc1ccc(-c2nnc3c4cc5c(cc4n(Cc4ccccc4)cc2-3)OCCO5)cc1C	53%
O=C(Nc1nc2ccc(Cl)cc2s1)c1ccc(-c2ccccc2)cc1	8%
O=c1c2ccccc2nc2c3ccccc3c(NCCCO)nn12	-7%
O=c1cc(N2CCN(c3ccccc3)CC2)[nH]c(=O)n1-c1ccc(Cl)cc1	0%
O=C(Nc1nnc(-c2ccc(F)cc2)s1)c1cccc(C(F)(F)F)c1	10%
CCOc1ccc(NC(=O)Cn2nnc(C(=O)NCCc3ccccc3)c2N)cc1	-9%
COc1ccc(-c2nnc(NC(=O)c3ccc(S(=O)(=O)C(C)C)cc3)o2)cc1OC	80%
CN1C(=O)c2cccc3c(S(=O)(=O)Nc4ccccn4)ccc1c23	-15%
COc1cc(/C=N/Nc2ncc(C)c(=O)[nH]2)ccc1O	-16%
SMILES	Mtb growth
O=C(Nc1nnc(-c2ccc(Br)cc2)s1)c1ccc(S(=O)(=O)N2CCCC2)cc1	-4%
Cc1cc(NC(=O)c2c(F)cccc2F)nc2c1c(=O)oc1ccccc12	1%
Cn1c(=O)[nH]c(=O)c2c1nc(N1CCCCCC1)n2CCCSc1nc2ccccc2s1	-2%
Cc1cc2c(=O)n(C)c(SCC(=O)c3ccccc3)nc2s1	1%
O=c1c2nnn(-c3ccc(Cl)cc3)c2ncn1Cc1ccccn1	-10%
COc1ccc(S(=O)(=O)c2cn(CC(=O)Nc3cccc(Cl)c3)c3ccccc3c2=O)cc1	1%
CCOC(=O)COc1cccc2c(=O)n(CC(=O)Nc3ccc(C)cc3C)ccc12	8%
CCC(C(=O)NCCc1cc2ccc(C)c(C)c2[nH]c1=O)c1ccccc1 (stereo not drawn)	2%
CCOC(=O)c1c(NC(=O)c2ccc(C)cc2C)sc2c1CCC2	0%
COCCSc1nc2c(c(=O)n(C)c(=O)n2C)n1Cc1ccccc1Cl	15%
Cc1ccc(S(=O)(=O)Nc2ccccc2C(=O)Nc2nc3c(ccc4ccccc43)s2)cc1	11%
O=C(Nc1cccc(Cl)c1Cl)c1cnc2sccn2c1=O	-1%
COc1ccc(Cc2nnc(NC(=O)CC(C)C)s2)cc1	1%
CC(=O)c1cccc(Nc2ncnc3c2cnn3-c2ccccc2)c1	-2%
CCc1cccc(OCC(O)Cn2c(NCc3ccco3)nc3c2c(=O)n(C)c(=O)n3C)c1 (stereo not drawn)	33%
Cc1ccc(N2C(=O)C3N=NN(CC(=O)Nc4ccc(F)cc4)C3C2=O)cc1Cl (stereo not drawn)	-25%
O=C(O)CCc1n[nH]c(=S)[nH]c1=O	6%
COc1ccc(-c2nc(N3CCCCC3)nc3n[nH]c(N)c23)cc1	13µg/mL*
Fc1ccc(Nc2nc(N3CCN(Cc4ccccc4)CC3)nc3nccnc23)cc1	-13%
Cc1ccc(-c2nnc(NC(=O)c3ccc(S(=O)(=O)N4CC(C)CC(C)C4)cc3)o2)c(C)c1 (stereo not drawn)	-1%
CCOc1ccc(NC(=O)c2oc3ccccc3c2NC(=O)c2cccc(Cl)c2)cc1	9%
COc1cccc(-c2nc(C(N)=O)c3[nH]c(=O)n(-c4ccc(Cl)c(Cl)c4)c3n2)c1O	14%
Cc1csc2nc(O)c(C(=O)NCCCN3CCOCC3)c(=O)n12	-4%
COc1ccc(OC)c(NC(=O)c2oc3ccccc3c2NC(=O)C2CC(=O)N(c3ccccc3)C2)c1 (stereo not drawn)	12%
Nn1c(SCc2ccccc2Cl)nncc1=O	10%

Taken from above:
Entry for `Cc1csc2nc(O)c(C(=O)NCCCN3CCOCC3)c(=O)n12` under Mtb growth: -4%
Entry for `COc1ccc(Cc2nnc(NC(=O)CC(C)C)s2)cc1` under Mtb growth: 1%
Entry for `O=c1c2nnn(-c3ccc(Cl)cc3)c2ncn1Cc1ccccn1` under Mtb growth: -10%
Entry for `Cc1cc(NC(=O)c2c(F)cccc2F)nc2c1c(=O)oc1ccccc12` under Mtb growth: 1%
Entry for `CCOc1ccc(NC(=O)c2oc3ccccc3c2NC(=O)c2cccc(Cl)c2)cc1` under Mtb growth: 9%
Entry for `CC(=O)c1cccc(Nc2ncnc3c2cnn3-c2ccccc2)c1` under Mtb growth: -2%

(listing goes on)
SMILES	Mtb growth
COc1ccc(/C(O)=C2\C(=O)C(=O)N(CCCn3ccnc3)C2c2ccccn2)cc1C (stereo not drawn)	-12%
Cc1cc(C(=O)N/N=C/c2ccccn2)n[nH]1	0%
Cc1cc(NC(=O)c2ccc(C(C)(C)C)cc2)nc2c1c(=O)oc1ccccc12	7%
N#CC1=C(SCC(=O)NC2CC2)NC2=C(C(=O)CCC2)C1c1ccco1 (stereo not drawn)	0%
Cc1ccc(NC(=O)CN2N=NC3C(=O)N(c4ccc(C)c(C)c4)C(=O)C32)cc1C (stereo not drawn)	-10%
O=C(CSc1c[nH]c2ccccc12)NCc1ccccc1	5%
O=C(CSc1ccc2nnc(-c3ccncc3)n2n1)Nc1cccc(C(F)(F)F)c1	1%
CCOC(=O)c1c(NC(=O)c2cc(OC)cc(OC)c2)sc2c1CCN(C(=O)OCC)C2	2%
Cc1ccc(C(=O)c2cn(CC(=O)Nc3ccc(Cl)cc3)c3cc4c(cc3c2=O)OCCO4)cc1	10%
COc1ccc(NC(=O)c2oc3ccccc3c2NC(=O)CC(C)(C)C)cc1OC	7%
O=C(CCS(=O)(=O)c1ccccc1)Nc1nnc(-c2cc(Cl)ccc2Cl)o1	54%
CSc1cccc2sc(Nc3cccc(Cl)c3)nc12	5.4µg/mL*
O=C(CSc1nc(-c2ccccc2)c2ccccc2n1)Nc1ccc2c(c1)OCO2	-3%
CCOC(=O)c1nn(-c2ccc(OC)cc2)c(=O)c2c(NC(=O)c3ccccc3F)scc12	-2%
CCOc1ccc(-c2nnc3c4cc(F)ccc4n(Cc4ccc(OC)cc4)cc2-3)cc1	31%
O=C1CCc2cc(S(=O)(=O)Nc3cc(F)ccc3F)cc3c2N1CC3	-1%
CC1Cc2nc(SCC(=O)Nc3ccccc3F)n(Cc3ccccc3)c(=O)c2S1 (stereo not drawn)	10%
CCOC(=O)c1nn(-c2ccc(F)cc2)c(=O)c2c(NC(=O)c3ccc(Cl)cc3Cl)scc12	-12%
Fc1cccc(-c2nnc3ccc(SCc4ccccn4)nn23)c1	12%
CN(C(=O)CCc1ccccc1)C1CCS(=O)(=O)C1 (stereo not drawn)	-4%
Fc1ccc(Nc2nc3c(F)cccc3s2)cc1	26%
Fc1cccc(Cn2cc3c(-c4ccccc4)nnc-3c3cc(F)ccc32)c1	69%
NC(=O)c1ccsc1NC(=O)c1ccccc1	20%
COc1ccc(-c2nnc3ccc(SCC(=O)Nc4ccc(C)cc4)nn23)cc1	2%
CCOC(=O)c1nn(-c2ccccc2)c(=O)c2c(NC(=O)/C=C/c3ccc(OC)c(OC)c3)scc12	-7%

Two consecutive entries out of the list so far:
SMILES	Mtb growth
COc1ccc(/C(O)=C2\C(=O)C(=O)N(CCCn3ccnc3)C2c2ccccn2)cc1C (stereo not drawn)	-12%
Cc1cc(C(=O)N/N=C/c2ccccn2)n[nH]1	0%

(listing goes on)
SMILES	Mtb growth
COc1ccc(Cc2nnc(Nc3ccc(OC)cc3)[nH]c2=O)cc1	2%
Cc1cccc(NC(=O)C(=O)NCCCO)c1C	-13%
Cc1onc(-c2c(F)cccc2Cl)c1C(=O)NCc1ccccn1	2%
O=C(Nc1nc(-c2nc3ccccc3s2)cs1)c1ccc2c(c1)OCCO2	12%
CCOC(=O)c1oc2ccccc2c1NC(=O)c1ccc(C(C)(C)C)cc1	50%
CCC(C(=O)Nc1c(C(=O)Nc2ccc3c(c2)OCO3)oc2ccccc12)c1ccccc1 (stereo not drawn)	19%
CC1C(=O)N2CCCc3cc(S(=O)(=O)Nc4ccc(Cl)cc4Cl)cc1c32 (stereo not drawn)	1%
COc1cccc(C2NC(=O)NC(C)=C2C(=O)Nc2ccc(C)cc2C)c1 (stereo not drawn)	4%
O=C(CSc1ccc2nnc(-c3ccccc3)n2n1)Nc1cccc(F)c1	-6%
CC(=O)NC(=O)c1cc2cc(Cl)cc(Cl)c2oc1=Nc1cccc(C(F)(F)F)c1	4%
CN1CCN(c2nc3c(c(=O)[nH]c(=O)n3C)n2Cc2ccc(Cl)c(Cl)c2)CC1	12%
Clc1ccccc1CSc1ccc2nnc(-c3ccncc3)n2n1	-2%
CC1(C)CC(=O)c2cc3c(N)c(C(=O)Nc4ccccc4)sc3nc2C1	-1%
Cn1c(=O)c2c(SCC(=O)NCc3ccccc3)nc(-c3ccc(F)cc3)nc2n(C)c1=O	-3%
O=C(NCCC(c1ccccc1)c1ccccc1)c1cnc2sccn2c1=O	1%
COc1ccccc1/C=C1\SC(=S)N(CCC(=O)Nc2nccs2)C1=O	-12%
COc1ccc(CCNc2nc3c(-c4cccc(F)c4)nnn3c3ccccc23)cc1OC	-6%
CS(=O)(=O)N1CCCC(C(=O)NCc2cccs2)C1 (stereo not drawn)	1%
Cc1c(C)n2c3c(=O)n(C)c(=O)n(C)c3nc2n1CC(N)=O	-4%
Cc1ccc(NC(=O)CSc2ncnc3c2nnn3Cc2ccc(F)cc2)cc1Cl	0%
CC(=O)Cn1c(=O)c2c(nc3n(-c4cc(C)cc(C)c4)c(-c4ccccc4)cn23)n(C)c1=O	-3%
Cc1ccc(NC(=O)c2oc3ccccc3c2NC(=O)c2ccc(Br)o2)cc1C	10%
CSc1nnc(CSc2nc(C)cc(C)n2)n1C	-7%
Nc1c(C(=O)Nc2ccc(Br)cc2)sc2nc3c(c(-c4cccs4)c12)CCCC3	5.1µg/mL*
CCOC(=O)C1=C(C)NC(=O)NC1c1ccc(-c2cccc([N+](=O)[O-])c2)o1 (stereo not drawn)	-2%
SMILES	Mtb growth
O=C(Nc1c(C(=O)Nc2ccc(Cl)cc2)oc2ccccc12)c1ccc(F)cc1	8%
CC(=O)N1CCc2c(sc(NC(=O)c3ccc(Cl)cc3)c2C(N)=O)C1	80%
CCc1nnc(NS(=O)(=O)c2ccc(NC(=O)c3ccc([N+](=O)[O-])s3)cc2)s1	45%
COc1cc(Cl)c(C)cc1Nc1nncc(=O)[nH]1	-4%
CC1C(=O)N2CCCc3cc(NC(=O)C(=O)NC4CCCC4)cc1c32 (stereo not drawn)	24%
COc1ccc(N2CC(NC(=O)NCc3ccco3)CC2=O)cc1 (stereo not drawn)	8%
Nn1c(SCC(=O)Nc2ccc([N+](=O)[O-])cc2)nnc1-c1cccs1	-2%
NC(=O)C1Cc2ccccc2N1C(=O)CC(c1ccccc1)c1ccccc1 (stereo not drawn)	1%
O=C(Nc1c2c(nn1-c1cccc(Cl)c1)CS(=O)C2)c1cccc(C(F)(F)F)c1 (stereo not drawn)	10%
O=C1CC(NNc2ccc([N+](=O)[O-])cc2)C(=O)N1c1ccc(O)cc1 (stereo not drawn)	12%
O=C(c1ccncc1)N(CCc1ccccc1)C1CCS(=O)(=O)C1 (stereo not drawn)	-8%
Cc1ccc(CNC(=O)CSc2nc3[nH]ncc3c(=O)[nH]2)cc1	-6%
Cc1ccc(C(=O)Oc2coc(CSc3nccc(C)n3)cc2=O)cc1	-15%
Cc1ccc(CNC(=O)/C(C#N)=C2\N=C(NC(=O)c3cccnc3)c3ccccc32)cc1	-9%

6 of the compounds above, bar-delimited.
Structure | Mtb growth
CC1C(=O)N2CCCc3cc(NC(=O)C(=O)NC4CCCC4)cc1c32 (stereo not drawn) | 24%
COc1ccc(N2CC(NC(=O)NCc3ccco3)CC2=O)cc1 (stereo not drawn) | 8%
Nn1c(SCC(=O)Nc2ccc([N+](=O)[O-])cc2)nnc1-c1cccs1 | -2%
NC(=O)C1Cc2ccccc2N1C(=O)CC(c1ccccc1)c1ccccc1 (stereo not drawn) | 1%
O=C(Nc1c2c(nn1-c1cccc(Cl)c1)CS(=O)C2)c1cccc(C(F)(F)F)c1 (stereo not drawn) | 10%
O=C1CC(NNc2ccc([N+](=O)[O-])cc2)C(=O)N1c1ccc(O)cc1 (stereo not drawn) | 12%

Source: PubChem BioAssay (Southern Research Institute)
